High-throughput results deposited in PubChem BioAssay by ICCB-Longwood Screening Facility, Harvard Medical School.
AID504770: growth inhibitors of E. coli YBA685 in a screen for V. cholerae RctB (chromosome II replication) inhibitors; AID 504770; actives 0.27% (n = 130,000); E. coli YBA685 rctB-dependent plasmid, OD600 growth, 3 h; stronger effect = lower value; z-score (concentration not given with the values);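 active = z-score under -2 on both plates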;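 note: wells of about 30 µL received 100 nL stock; score is relative to mean and SD of the test wells; the first replicate is given; strong numbers were not always called active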
CapD inh: blocks the Bacillus anthracis CapD enzyme | actives 0.23% (n = 140,000) | purified CapD enzyme, fluorescence intensity read-out; stronger effect = lower value; some hits fall short of the stated cut | z-score (no concentration beside the values);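 active = z-score under -4 in either of two replicates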;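 note: stock transfer was 100 nL into about 40 µL; score is relative to mean and spread of the plate; one replicate is shown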
Starred values were filed as active, the others as inactive; . = not tested or not shown.

SMILES | AID504770 | CapD inh
O=C(COC(=O)c1cccnc1Cl)c1cccc(Cl)c1 | -0.3 | -0.2
Cc1ccc(C(=O)OC(C)C(=O)Nc2ccc(S(N)(=O)=O)cc2)s1 (stereo not drawn) | -0.35 | .
O=C(OCC1CCCN2CCCCC12)c1cc2nc(-c3ccco3)cc(C(F)(F)F)n2n1 (stereo not drawn) | -0.6 | 21
COc1ccc(CNc2ccc(C)c(C)c2)c(OC)c1OC | 1.1 | .
NC(=O)C12CC3CC(CC(Cl)(C3)C1)C2 | 2.3 | -0.9
Cc1csc2sc(/C=C(\C#N)S(=O)(=O)c3cccs3)c(C)c12 | -0.85 | -0.53
O=C1CCN(C(=O)Cn2c(C(F)(F)F)nc3ccccc32)CC1 | 1.9 | .
O=C(c1cccc(C(F)(F)F)c1)N(c1ccccn1)C1CCCCC1 | 0.25 | .
Cc1onc(-c2c(Cl)cccc2Cl)c1/C(N)=N/OC(=O)C(C)(C)C | -0.35 | 0.72
N#Cc1ccccc1N1CCCCC1 | . | 40
Cc1ccc(NCCCCO)c(C)c1 | -0.2 | .
CN(C1CCN(Cc2ccc(-c3ccccc3)cc2)C1)S(=O)(=O)c1ccccc1Cl (stereo not drawn) | . | 0.45
Cc1cccc(-n2ncc3c(N4CCN(c5ccc(F)cc5)CC4)ncnc32)c1 | . | 2.9
Nc1nnc2sc(SCC(=O)O)nn2c1=O | -0.35 | -0.81
O=C(CC12CC3CC(CC(C3)C1)C2)Nc1nccs1 | . | -0.6
O=C(C(c1ccccc1)c1ccccc1)N1CCNCC1 | 0 | 0.06
CC1CC(=O)Nc2ccccc2N1C(=O)Nc1ccccc1 (stereo not drawn) | -0.9 | -0.57
CCOc1cc(C2C(C(=O)OCCSCC)=C(C)NC3=C2C(=O)CC(c2cccs2)C3)ccc1O (stereo not drawn) | . | 9.8
Cc1cccc(C)c1NC(=O)CCCN1CC(C)OC(C)C1 (stereo not drawn) | -0.45 | -0.075
Clc1ccc(-c2noc(CNC3CCCCC3)n2)cc1 | -0.25 | 0.6
Cc1nnc(SCC(=O)N(C2CCCCC2)C2CCCCC2)[nH]c1=O | 1.4 | .
COc1ccc(C2C(C(=O)O)c3ccccc3C(=O)N2C2CCN(Cc3ccccc3)CC2)cc1 (stereo not drawn) | . | 0.72
CC(C(=O)NCC1(c2ccccc2)CCCC1)N1CCCCC1 (stereo not drawn) | . | -0.13
Cc1nc2ccccn2c1C(=O)N1CCCC(C)C1 (stereo not drawn) | 1.3 | .
CCN(CC)C(=O)c1cc(-c2ccc(C)cc2)on1 | 0 | 0.43
O=C(COc1ccc(F)cc1)N(Cc1ccccc1)c1ccccn1 | -0.25 | 0.39
CCOC(=O)c1c(C)c(=O)oc2c1c(=O)[nH]n2-c1ccccc1 | 0.8 | -3.3
COc1ccc(-c2csc(C(=O)N3CCCCC3)c2)cc1 | . | -0.21
N#CC1=C(NC(=S)NC(=O)c2ccccc2)c2ccccc2CC12CCCCC2 | . | -0.48
Cc1c(C(=O)N2CCCC2)oc2ccc3c(c12)C(O)CC(C)(C)O3 (stereo not drawn) | 1.4 | 0.96

A portion of the results above:
SMILES | AID504770 | CapD inh
O=C(CC12CC3CC(CC(C3)C1)C2)Nc1nccs1 | . | -0.6
O=C(C(c1ccccc1)c1ccccc1)N1CCNCC1 | 0 | 0.06
CC1CC(=O)Nc2ccccc2N1C(=O)Nc1ccccc1 (stereo not drawn) | -0.9 | -0.57
CCOc1cc(C2C(C(=O)OCCSCC)=C(C)NC3=C2C(=O)CC(c2cccs2)C3)ccc1O (stereo not drawn) | . | 9.8
Cc1cccc(C)c1NC(=O)CCCN1CC(C)OC(C)C1 (stereo not drawn) | -0.45 | -0.075
Clc1ccc(-c2noc(CNC3CCCCC3)n2)cc1 | -0.25 | 0.6
Cc1nnc(SCC(=O)N(C2CCCCC2)C2CCCCC2)[nH]c1=O | 1.4 | .
COc1ccc(C2C(C(=O)O)c3ccccc3C(=O)N2C2CCN(Cc3ccccc3)CC2)cc1 (stereo not drawn) | . | 0.72
CC(C(=O)NCC1(c2ccccc2)CCCC1)N1CCCCC1 (stereo not drawn) | . | -0.13
Cc1nc2ccccn2c1C(=O)N1CCCC(C)C1 (stereo not drawn) | 1.3 | .
CCN(CC)C(=O)c1cc(-c2ccc(C)cc2)on1 | 0 | 0.43
O=C(COc1ccc(F)cc1)N(Cc1ccccc1)c1ccccn1 | -0.25 | 0.39
CCOC(=O)c1c(C)c(=O)oc2c1c(=O)[nH]n2-c1ccccc1 | 0.8 | -3.3
COc1ccc(-c2csc(C(=O)N3CCCCC3)c2)cc1 | . | -0.21
N#CC1=C(NC(=S)NC(=O)c2ccccc2)c2ccccc2CC12CCCCC2 | . | -0.48

Next section
SMILES | AID504770 | CapD inh
CCC(C)c1ccc2oc(-c3ccc(NC(=O)c4ccc(OC)c(OC)c4)cc3)nc2c1 (stereo not drawn) | . | 1.1
CCC1CCCCN1C(=O)CSc1nc2ccccc2[nH]1 (stereo not drawn) | -0.15 | 0.12
CCOC(=O)c1c(Cn2cnnn2)n(-c2ccccc2)c2cc(Br)c(OC)cc12 | . | -0.12
CCCCNC(=O)c1ccc2c(c1)NC(=O)C(CS(=O)(=O)Cc1ccccc1C)N2 (stereo not drawn) | -0.2 | 12
O=c1ccc(-c2ccc(S(=O)(=O)N3CCc4ccccc43)o2)n[nH]1 | -0.2 | 0.33
CNC(=O)CSc1nc(-c2ccccc2)c(-c2ccccc2)[nH]1 | -0.15 | 41
CC12CC[C@H]3[C@@H](CCC4(O)C[C@H](O)CCC34/C=N/NC(=O)c3ccccc3O)C1(O)CCC2C1=CC(=O)OC1 (stereo partly drawn) | 0.1 | 4
CCOC(=O)c1cc(C#N)c(SCC(=O)Nc2ccc(C(C)=O)cc2)[nH]c1=O | . | 21
COC(=O)c1sc(N)c(C(=O)OC)c1COC(=O)[C@H](C)N=C1NS(=O)(=O)c2ccccc21 | -0.2 | .
CCS(=O)(=O)Nc1ccc(C(=O)N2CCN(Cc3ccc4c(c3)OCO4)CC2)cc1 | -0.2 | .
CC(C(=O)OCC(=O)Nc1ccccc1)N1C(=O)c2ccccc2C1=O (stereo not drawn) | -0.35 | .
Cc1nn2c(-c3ccco3)nnc2c2ccccc12 | 0.3 | 0.18
Clc1ccc(Oc2ccccc2)c(NC2=NCCC2)c1 | 0.6 | .
Cn1c(CSc2nc3ccccc3s2)n[nH]c1=S | 0 | .
Cc1ccccc1S(=O)(=O)Cc1ccc(C(=O)N2CCC3(CC2)OCCO3)o1 | 0 | -0.26
CCOC(=O)c1sc(N2C(=O)c3oc4ccccc4c(=O)c3C2c2ccc(O)c(OCC)c2)nc1C (stereo not drawn) | -0.3 | -0.21
COc1ccc(CNC(=O)c2ccc(Cn3cc(Br)cn3)o2)cc1 | -1.1 | 0.49
O=C(Nc1ccc(Nc2nc3c(S(=O)(=O)c4ccc(Br)cc4)nnn3c3ccccc23)cc1)c1ccco1 | -0.55 | 1
Cc1ccc(-c2nn(C)c(=O)c3ccccc23)cc1S(N)(=O)=O | 1.9 | -0.7
O=C(O)c1ccc(Cl)c(NC(=O)c2ccco2)c1 | 1.7 | -0.7
CCn1cc(C(=O)O)c(=O)c2cc(F)c(N3CCN(C(=O)c4ccccc4F)CC3)cc21 | -3.8* | .
O=C(Cn1cnc2ccccc2c1=O)N1CCSC1c1ccccc1F (stereo not drawn) | -1.4 | .
Cc1cc(C(=O)OCc2nnc(-c3ccccc3)o2)c(C)n1-c1ccccc1 | 0.85 | .
O=C(NCC1CCCO1)c1ccc(OCc2ccnc(Cl)c2)cc1 (stereo not drawn) | . | -0.14
COc1ccc(-c2c(C)oc3c(CN4CCN(C)CC4)c(O)ccc3c2=O)cc1 | -0.65 | 12
CC(C#N)(Nc1ccccc1)c1cccnc1 (stereo not drawn) | -0.4 | -0.12
C=CCn1c(=O)c2ccc(C(=O)NCc3ccc4c(c3)OCO4)cc2n(CC(=O)NCc2ccco2)c1=O | 0.8 | -0.16
Cc1ccc(C)n1-c1ccc(C(=O)ON2C(=O)CCC2=O)cc1 | . | -0.24
Cc1cc(C(=O)COC(=O)c2cccs2)c(C)n1Cc1cccs1 | 0.1 | .
CCOC(=O)C1=C(C)NC2=C(C(=O)C(C(=O)OCC)C(c3cccc(OC)c3)C2)C1c1ccc(F)cc1 (stereo not drawn) | . | 4.2
Cc1ccc(Oc2ccc3c(c2)C(=O)N(CC(=O)O)C3=O)cc1C | -0.75 | .
COc1ccc(CC(=O)Nc2ncn[nH]2)cc1OC | -0.05 | .
Cc1c(C)c(C)c(CSC(=Nc2ccc(C(C)C)cc2)N2CCOCC2)c(C)c1C | 0.3 | -0.04
COC(=O)CCC/C=C1/SCC(NC(=O)c2ccccc2)/C1=N/O (stereo not drawn) | 0.5 | .
CCc1ccc(NC(=O)CSc2nc3cc(C(=O)NCc4ccco4)ccc3c(=O)n2Cc2ccco2)cc1 | . | 2
O=C(N1CCc2ccccc2C1)C(Cl)(Cl)Cl | . | 0.48
O=S(=O)(c1ccc2[nH]c3nc4nc(-c5ccc(Br)cc5)cn4nc3c2c1)N1CCCC1 | . | -1.2
CCCC(=O)Nc1ccc(-c2nc3ccccc3s2)cc1 | -0.8 | 68
O=C(Cc1ccc(Cl)c(Cl)c1)Nc1ccc2nc3n(c(=O)c2c1)CCCC3 | -0.4 | 1.8
FC(F)(F)c1cc(-c2ccccc2)nc(NCc2cccnc2)n1 | 1.2 | 34
O=C(NCCCn1ccnc1)Nc1cccc2ccccc12 | -0.25 | .
O=C(c1ccccc1)N1CCC(c2nc3ccccc3[nH]2)CC1 | -0.3 | .
O=[N+]([O-])c1cc(Cl)c(N2CCCCC2)cc1N1CCCCC1 | . | 0.15
COc1ccccc1S(=O)(=O)Nc1ccc2nc(C)sc2c1 | -0.45 | .
N#Cc1ccc(C(=O)Oc2ccc3ccccc3c2)cc1 | 0.15 | 0.98
CCCN(CC1CC1)C(=O)c1cc(S(=O)(=O)N(CC)CC)ccc1Cl | 0.1 | 0.46
COc1cc2ccccc2cc1C(=O)OCC#N | 0.3 | .
COC(=O)CC1=C(C(=O)OC)C(c2ccc(C(=O)OC)cc2)C(C#N)=C(N)O1 (stereo not drawn) | -1.5 | .
CCOC(=O)c1c(C)n(C)c2ccc(OCC(O)CNCc3ccccc3)cc12 (stereo not drawn) | 0.2 | -0.26
COc1ccccc1NC(=O)c1sc2nc(-c3cc4cccc(OC)c4oc3=O)[nH]c(=O)c2c1C | 1 | -0.77
O=C(O)c1ccc2c(c1)sc1[n+]2CCS(=O)(=O)N1 | -0.2 | .
Cc1ccc(-c2cn3c(n2)sc2cc(C(=O)NCCN4CCCC4)ccc23)cc1 | 0.4 | 13
CC(=O)Nc1ccccc1-c1nnc(-c2ccc(C(C)(C)C)cc2)o1 | 0.6 | 37
CC(NCC(F)(F)F)C1CC1 (stereo not drawn) | -1.4 | .
O=C(COc1cccc2ccccc12)OC1CCS(=O)(=O)C1 (stereo not drawn) | 0.2 | 0.06
CC(=O)Nc1ccc(N2C(=O)c3ccc4c5c(ccc(c35)C2=O)C(=O)N(c2ccc(NC(C)=O)cc2)C4=O)cc1 | . | -0.5
CCc1c(C)nc2c(C)cccc2c1Cl | 0.25 | .
CCC1(CC)OC(c2ccccn2)Nc2ccccc21 (stereo not drawn) | -0.3 | -0.18
CSC(=CC(=O)c1ccccn1)SC | -0.2 | -2.9
CNC(=S)Nc1ccc(C(N)=O)cc1 | 0.55 | -0.13
The listing continues:
SMILES | AID504770 | CapD inh
NNC(=O)c1ccc(CSc2nc3ccccc3[nH]2)cc1 | 1.6 | .
Cn1/c(=N/N=C2\C(=O)Nc3c(Cl)cc(Cl)cc32)sc2ccccc21 | 1.6 | .
Cc1nc(N(C)c2ccc(C(C)C)cc2)c2c(C)c(C(=O)O)sc2n1 | . | -1.8
Cc1cc(C)c(C#N)c(SCC(=O)N(Cc2ccccc2)Cc2ccccc2)n1 | 0.55 | -0.42
CCCc1ncc(C(O)c2ccccc2OC)n1C (stereo not drawn) | -0.45 | .
COc1cc(C=Nc2ccc(Cl)cc2)ccc1OC(=O)C1CC1 | -0.1 | 0.45
CN(C(=O)CSc1nncc2ccccc12)C1CCCCC1 | 1.6 | 0.89
O=S(=O)(c1ccccc1)c1cc(C(F)(F)F)cc(C(F)(F)F)c1 | . | -0.2
Cc1cccc(NC(=O)CSc2c[nH]c3ccccc23)c1 | 0 | -0.46
CC(C#N)OC(=O)c1cc(S(C)(=O)=O)ccc1Cl (stereo not drawn) | -0.15 | .
CCOc1ccc(NC(=O)C2=C(C)NC(=O)NC2c2cccc([N+](=O)[O-])c2)cc1 (stereo not drawn) | . | -0.19
CC(C(=O)O)N1C(=O)c2ccccc2C1=O (stereo not drawn) | 0.4 | 0.53
CC(=O)Oc1cc(-c2ccccc2)nn1C | 1.1 | -0.3
Cc1ccc(/C=C2\C(=O)Nc3ccc(S(=O)(=O)Nc4ccc(F)cc4)cc32)o1 | 1.7 | .
CCC1Oc2ccc(C)cc2NC1=S (stereo not drawn) | 1.1 | -2
COC(=O)C1=C(C(=O)OC)SC(=C2C(=S)C(C)(C)N(C(=O)Cc3ccccc3)c3ccc(OC)cc32)S1 | . | 0.1
N#Cc1ccc(NC(=O)Cn2cnnn2)cc1 | -0.25 | .
O=C(Nc1ccccc1)c1ccc(Br)cc1 | . | -0.42
CCCC1=C(C(=O)OCC)C2(C(=O)Nc3ccccc32)C(C(=O)OCc2ccccc2)=C(N)O1 (stereo not drawn) | . | 0.43
O=S(=O)(c1ccc(NCCCn2ccnc2)nc1)N1CCCC1 | 0 | .
CS(=O)(=O)Nc1cc(Cl)ccc1Oc1ccccc1 | -0.8 | -0.015
COc1ccc(-n2nc3c(c2NC(=O)c2cc(OC)c(OC)c(OC)c2)CS(=O)(=O)C3)cc1 | . | -1.3
CCOC(=O)N1CCN(C(=O)c2c[nH]c3ccc(S(=O)(=O)N(C)c4ccccc4C)cc3c2=O)CC1 | . | 6.8
